Assay outcomes: PubChem, Broad Institute
Ecoli rRNA inh = inhibitors of bacterial rRNA selective over humanized ribosomes; E. coli WT GFP vs humanized-ribosome RFP mutants, fluorescence, 24 h; hits give low values; DMSO median 0, no signal -100; GFP signal change (wild-type ribosome), % (no concentration beside the values); hit rate 1.6% among 350,000; AID 720706;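 active means significant combined selectivity score with lowered wild-type GFP, culture density cut under 30%, mutant RFP and density less affected; inactive means any of these conditions unmet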; further: one replicate is shown; some compounds called inactive have numbers as strong as hits
Ecoli rRNA inh OD600 = second read-out of Ecoli rRNA inh, no call of its own (marks repeat the call); OD600 change, %; measured here: OD600 growth;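 optical density of the mix in the first replicate; 0 = DMSO median and -100 = no signal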
Ecoli rRNA inh RFP = recorded beside Ecoli rRNA inh, whose call it bears; RFP signal change, %; measured here: RFP humanized mutant strains;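 first replicate; 0 = DMSO median and -100 = no signal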
Active calls of the source: *. This is a subset (hit frequency here may not be typical).

SMILES	Ecoli rRNA inh	Ecoli rRNA inh OD600	Ecoli rRNA inh RFP
C[C@H](CO)N1C[C@H](C)[C@@H](CN(C)S(=O)(=O)c2ccc(Cl)cc2)Oc2c(NC(=O)CCCCCC(=O)Nc3ccccc3N)cccc2C1=O	-4	-10	4.5
CN(C)CC(=O)N[C@@H]1CC[C@H](CC(=O)NCc2ccccc2F)O[C@@H]1CO	4	0	0.0
Cc1noc(C)c1S(=O)(=O)Nc1ccc2c(c1)C(=O)N([C@H](C)CO)C[C@@H](C)[C@@H](CN(C)Cc1ccncc1)OCCCC[C@@H](C)O2	-1	4	-0.9
C[C@@H]1CN([C@H](C)CO)C(=O)c2cccc(NC(=O)Nc3ccc(F)cc3)c2O[C@H]1CN(C)Cc1ccc(C(F)(F)F)cc1	1	7	-3.8
Cc1cccc(S(=O)(=O)N[C@@H]2CC[C@H](CCNC(=O)Nc3cc(F)ccc3F)O[C@@H]2CO)c1	-1	-9	3.8
CO[C@H]1CN(C)C(=O)c2cc(NC(=O)C3CCC3)ccc2OC[C@@H](C)N(Cc2ccccn2)C[C@H]1C	0	-4	0.4
Cc1ccccc1CN1CCN(C(=O)[C@H]2O[C@@H](n3cnc4c(N)ncnc43)[C@H](O)[C@@H]2O)CC1	-2	-5	5.2
COc1ccc(S(=O)(=O)N(C)C[C@@H]2Oc3ccc(NS(=O)(=O)c4ccc(F)cc4)cc3C(=O)N([C@H](C)CO)C[C@H]2C)cc1	-1	-5	0.8
O=C(N[C@H]1CC[C@H](CCNC(=O)C2CC2)O[C@H]1CO)c1ccncc1	2	4	-1.9
CN1C(=O)c2cc(NC(=O)Cc3ccccc3)ccc2OC[C@H]2O[C@@H](CC(=O)NC3CCC3)CC[C@H]21	-5	-6	2.8

A draw from above in order of number of heavy atoms, highest first.
SMILES	Ecoli rRNA inh	Ecoli rRNA inh OD600	Ecoli rRNA inh RFP
C[C@H](CO)N1C[C@H](C)[C@@H](CN(C)S(=O)(=O)c2ccc(Cl)cc2)Oc2c(NC(=O)CCCCCC(=O)Nc3ccccc3N)cccc2C1=O	-4	-10	4.5
Cc1noc(C)c1S(=O)(=O)Nc1ccc2c(c1)C(=O)N([C@H](C)CO)C[C@@H](C)[C@@H](CN(C)Cc1ccncc1)OCCCC[C@@H](C)O2	-1	4	-0.9
COc1ccc(S(=O)(=O)N(C)C[C@@H]2Oc3ccc(NS(=O)(=O)c4ccc(F)cc4)cc3C(=O)N([C@H](C)CO)C[C@H]2C)cc1	-1	-5	0.8
CO[C@H]1CN(C)C(=O)c2cc(NC(=O)C3CCC3)ccc2OC[C@@H](C)N(Cc2ccccn2)C[C@H]1C	0	-4	0.4
Cc1cccc(S(=O)(=O)N[C@@H]2CC[C@H](CCNC(=O)Nc3cc(F)ccc3F)O[C@@H]2CO)c1	-1	-9	3.8
O=C(N[C@H]1CC[C@H](CCNC(=O)C2CC2)O[C@H]1CO)c1ccncc1	2	4	-1.9

(continued)
SMILES	Ecoli rRNA inh	Ecoli rRNA inh OD600	Ecoli rRNA inh RFP
O=C(NC[C@H]1N[C@H](CO)[C@@H]1c1ccc(-c2ccccc2)cc1)C1CCC1	-1	-6	2.7
CC(C)N1C(=O)c2ccccc2NC(=O)C1C(=O)NCc1cccc(C(F)(F)F)c1 (stereo unspecified)	1	-3	0.2
Cc1cccc(NC(=O)c2ncn3c2C(=O)N[C@@H](C)C3)c1	17	10	0.0
C[C@@H]1CN(C)C(=O)Cc2cc(NS(C)(=O)=O)ccc2O[C@@H]1CN(C)S(C)(=O)=O	0	-2	-1.7
COc1cccc(-c2cn(CC[C@@H]3CC[C@@H](NS(=O)(=O)Cc4ccccc4)[C@H](CO)O3)nn2)c1	-7	-8	0.7
COc1ccc2c3c([nH]c2c1)[C@@H](CO)N(C(=O)c1cccc(F)c1)CC31CN(C(C)=O)C1	3	10	3.8
CN1C(=O)c2cc(NS(C)(=O)=O)ccc2OC[C@@H]2O[C@@H](CC(=O)O)CC[C@H]21	0	-3	-1.6
CO[C@H]1CN(C)C(=O)c2cc(NC(=O)CC(F)(F)F)ccc2OC[C@@H](C)N(S(=O)(=O)c2cn(C)cn2)C[C@@H]1C	1	6	-2.3
CN1[C@@H]2c3ccc(-c4cccc(F)c4)c(=O)n3C[C@H]1[C@H](CO)[C@H]2C(=O)N1CCOCC1	0	0	-2.3
O=S(=O)(c1ccccc1F)N1CCCCN2[C@H](CO)[C@H](c3ccc(-c4cccnc4)cc3)[C@@H]2C1	-2	-15	2.1
COc1ccc(S(=O)(=O)Nc2ccc3c(c2)C(=O)N([C@H](C)CO)C[C@@H](C)[C@H](CN(C)C(=O)Nc2ccc4c(c2)OCO4)OCCCC[C@@H](C)O3)cc1	0	2	4.0
CN1CCN(C(=O)C[C@@H]2CC[C@H]3[C@@H](COC[C@@H](O)CN3Cc3ccc(Oc4ccccc4)cc3)O2)CC1	0	-3	6.1
Cc1noc(C)c1S(=O)(=O)Nc1ccc2c(c1)C(=O)N([C@@H](C)CO)C[C@@H](C)[C@H](CN(C)S(=O)(=O)c1ccc(F)cc1)O2	-1	0	-2.6
COc1ccc([C@H]2C[C@@H](n3cc(C4CC4)nn3)[C@H](O)CN2Cc2cccs2)cc1	4	-2	7.5
C[C@H](CO)N1C[C@H](C)[C@H](CN(C)C(=O)Nc2ccc(F)cc2)Oc2ncc(-c3cc4ccccc4o3)cc2C1=O	-5	-4	4.5
COc1ccc(S(=O)(=O)N(C)C[C@@H]2OCCCC[C@H](C)Oc3ccc(NC(=O)CCCN(C)C)cc3C(=O)N([C@@H](C)CO)C[C@H]2C)cc1	2	0	-0.2
Cn1cc(-c2ccc(C(=O)Nc3cccc(Oc4ccccc4)c3)c3occc23)cn1	2	8	-1.2
CC(C)NC(=O)Nc1ccc2c(c1)C(=O)N([C@@H](C)CO)C[C@H](C)[C@H](CN(C)S(=O)(=O)c1cccs1)OCCCC[C@H](C)O2	0	-5	-1.0
O=S(=O)(c1ccccc1F)N1CCCCN2[C@H](CO)[C@@H](c3ccc(-c4cccnc4)cc3)[C@@H]2C1	-5	-9	-0.4
CO[C@@H]1CN(C)C(=O)c2ccc(NC(C)=O)cc2OC[C@H](C)N(Cc2cccc(F)c2)C[C@H]1C	-6	-6	0.0
C[C@H]1CN([C@@H](C)CO)C(=O)c2cccc(NS(C)(=O)=O)c2O[C@@H]1CN(C)Cc1ccc(C(=O)Nc2ccccc2N)cc1	0	5	-2.0
CCCCN1CCCCC1(C)C(=O)NCc1cccc(OC)c1 (stereo unspecified)	1	4	-2.2
N#Cc1ccc(-c2ccc([C@@H]3[C@H]4CNCC(=O)N4[C@H]3CO)cc2)cc1	-3	3	-1.7
C[C@@H]1CN([C@@H](C)CO)C(=O)Cc2cc(NS(=O)(=O)c3ccc(F)cc3)ccc2O[C@@H]1CN(C)Cc1ccc(-c2ccccc2)cc1	3	2	0.7
CC(C)n1c(=O)c2ccccc2n1Cc1cn(-c2ccc(Cl)cc2)nn1	-26	-28	-7.5
O=C1N[C@H](c2ccccc2)COCc2cn(nn2)CC[C@@H]1Cc1ccc(C(F)(F)F)cc1	4	2	1.7
C/C=C/c1ccc([C@@H]2[C@@H](CN(CC)C(C)=O)N(C(=O)C3CCC3)[C@H]2CO)cc1	-3	3	1.3
O=C(C[C@H]1CC[C@@H](NC(=O)CCN2CCCCC2)[C@H](CO)O1)Nc1ccc(-c2ccccc2)cc1	0	1	2.3
COc1ccc(C#Cc2cnc3c(c2)C(=O)N([C@H](C)CO)C[C@H](C)[C@H](CN(C)S(=O)(=O)c2cn(C)cn2)O3)cc1OC	-2	14	1.0
O=C(c1ccccc1F)N1CC(=O)N2[C@H](C1)[C@H](c1ccc(-c3ccc(F)cc3)cc1)[C@@H]2CO	4	-20	0.9
CN1c2ccc(-c3ccccc3F)cc2[C@@H]2[C@@H](CCN2S(=O)(=O)c2ccc(F)cc2)[C@@H]1CO	0	-9	3.5
O=C(C[C@H]1C[C@H]2c3cc(NC(=O)c4cccnc4)ccc3O[C@H]2[C@@H](CO)O1)NC1CCCC1	2	12	-1.8
Cc1ccc(S(=O)(=O)Nc2ccc3c(c2)C(=O)N([C@@H](C)CO)C[C@@H](C)[C@@H](CN(C)Cc2ccncc2)OCCCC[C@@H](C)O3)cc1	-3	-8	1.7
COc1ccccc1C#Cc1ccc([C@H]2[C@H](C#N)N(C(=O)C3CCC3)[C@H]2CO)cc1	-13	-37	0.4
C[C@@H]1CN([C@H](C)CO)S(=O)(=O)c2ccc(C3=CCCC3)cc2O[C@@H]1CN(C)C(=O)c1ccc(F)cc1	-9	-40	23
N#Cc1ccc(C(C(=O)Nc2ccc3c(c2)OCCO3)n2c(=O)c(-c3ccco3)nc3ccccc32)cc1 (stereo unspecified)	12	15	4.0
C[C@H]1CN([C@@H](C)CO)C(=O)Cc2cc(N(C)C)ccc2O[C@H]1CN(C)CC1CC1	2	5	1.4
O=C(C[C@@H]1CC[C@H]2[C@@H](COC[C@@H](O)CN2Cc2nccs2)O1)NCc1ccc(-c2ccccc2)cc1	-3	-8	-1.3
C[C@H](CO)N1C[C@H](C)[C@H](CN(C)S(=O)(=O)c2ccccc2)Oc2ccc(NC(=O)Nc3cccc4ccccc34)cc2C1=O	-2	2	10
C[C@H]1CN([C@@H](C)CO)C(=O)c2c(c3ccccc3n2C)-c2ccccc2CO[C@H]1CN(C)S(=O)(=O)c1ccccc1F	1	6	-1.5
CC=Cc1ccc2n(c1=O)C[C@@H]1[C@@H](CO)[C@H](C(=O)NCc3ccncc3)N(Cc3cncnc3)[C@H]21 (mixture of isomers)	2	3	2.0
O=C(C[C@@H]1CC[C@@H]2[C@H](COC[C@@H](O)CN2C(=O)Nc2ccc(F)cc2)O1)NCCc1ccncc1	-4	11	-1.5
COc1ccc(S(=O)(=O)N(C)C[C@H]2OCCCC[C@@H](C)Oc3ccc(NS(=O)(=O)c4ccc(C)cc4)cc3C(=O)N([C@H](C)CO)C[C@@H]2C)cc1	2	11	-0.7
Cc1noc(C)c1NC(=O)Nc1ccc2c(c1)CC(=O)N([C@H](C)CO)C[C@H](C)[C@H](CN(C)S(=O)(=O)c1cn(C)cn1)O2	7	14	-1.4
C[C@@H]1CN([C@@H](C)CO)C(=O)c2cccc(NC(=O)Nc3ccccc3)c2O[C@H]1CN(C)C	3	14	-1.4
COC(=O)C[C@H]1C=C[C@H](NC(=O)Nc2ccccc2OC)[C@@H](CO)O1	11	17	3.0
C[C@@H]1CN([C@H](C)CO)C(=O)Cc2cc(NS(C)(=O)=O)ccc2O[C@@H]1CN(C)S(=O)(=O)c1ccccc1	-1	8	-1.3
COCC(=O)Nc1ccc2c(c1)C(=O)N(C)C[C@H](OC)[C@H](C)CN(C(=O)c1ccncc1)[C@H](C)CO2	-1	-2	-3.4
C[C@@H]1CN([C@@H](C)CO)C(=O)c2cc(C#CC3CC3)cnc2O[C@@H]1CN(C)C(=O)C1CCCCC1	2	-7	0.3
CC(=O)N(C)C[C@H]1Oc2cc(/C=C/c3ccccc3)ccc2S(=O)(=O)N([C@H](C)CO)C[C@@H]1C	-8	-17	1.5

Look-ups from above:
C[C@@H]1CN([C@@H](C)CO)C(=O)c2cc(C#CC3CC3)cnc2O[C@@H]1CN(C)C(=O)C1CCCCC1 | Ecoli rRNA inh = 2
C[C@@H]1CN([C@@H](C)CO)C(=O)c2cccc(NC(=O)Nc3ccccc3)c2O[C@H]1CN(C)C | Ecoli rRNA inh RFP = -1.4

Following part:
SMILES	Ecoli rRNA inh	Ecoli rRNA inh OD600	Ecoli rRNA inh RFP
COc1ccc(-c2ccc(C3[C@H]4CNC[C@@H]3N4Cc3cncnc3)cc2)cc1 (stereo partly specified)	6	14	-2.3
COc1ccc(Br)c(C(=O)N2CCCC2(C)C(=O)NCC(C)C)c1 (stereo unspecified)	2	-1	2.1
C[C@H](CO)N1C[C@H](C)[C@H](CN(C)Cc2ccc3c(c2)OCO3)OCCCC[C@H](C)Oc2ccc(NC(=O)CCC(F)(F)F)cc2C1=O	-2	-2	0.3
COc1ccc(C#Cc2ccc([C@@H]3[C@@H](CO)N4C(=O)CN(C(=O)c5ccncc5)C[C@@H]34)cc2)cc1	-5	5	10
COc1ccccc1NC(=O)N1CC[C@@H]2[C@@H](CO)N(C)c3ccc(-c4cccc(F)c4)cc3[C@@H]21	-1	3	-1.9
CC(C)C#Cc1ccc2c(c1)O[C@@H](CN(C)CC1CCOCC1)[C@H](C)CN([C@H](C)CO)S2(=O)=O	-4	-24	4.7
C[C@H]1CN([C@@H](C)CO)C(=O)c2cc(C#Cc3cccnc3)cnc2O[C@@H]1CN(C)Cc1ccc(F)cc1	2	3	1.0
CCC(=O)Nc1ccc2c(c1)C(=O)N(C)C[C@H](OC)[C@@H](C)CN(C(=O)c1ccccn1)[C@H](C)CO2	2	1	-2.5
CN1c2ccc(C3=CCCCC3)cc2[C@H]2[C@H](CCN2C(=O)C2CCCCC2)[C@@H]1CO	-5	-19	16
C[C@H]1CN([C@@H](C)CO)C(=O)c2cc(NS(=O)(=O)c3cn(C)cn3)ccc2O[C@@H]1CN(C)Cc1ccc(-c2ccccc2)cc1	0	-2	1.8
C[C@H](CO)N1C[C@H](C)[C@@H](CN(C)CC2CCCC2)Oc2ncc(C#Cc3ccncc3)cc2C1=O	11	16	-3.3
C[C@H](CO)N1C[C@H](C)[C@@H](CN(C)C)Oc2ncc(C3=CCCC3)cc2C1=O	2	8	-0.4
CCC(=O)N1CC(=O)N2[C@@H](CO)[C@@H](c3ccc(C#Cc4cccnc4)cc3)[C@@H]2C1	-1	-7	0.0
COc1ccc(CN(C)C[C@H]2OCCCC[C@@H](C)Oc3ccc(NS(=O)(=O)c4c(C)noc4C)cc3C(=O)N([C@@H](C)CO)C[C@H]2C)cc1	0	0	2.0
COc1ccc2c3c([nH]c2c1)[C@@H](CO)N(C(=O)C1CCCC1)CC31CCN(C(=O)c2ccncc2)CC1	-4	-2	-1.4
